MITF inh: inhibitors of MITF; TRPM1 promoter luciferase, luminescence, 24 h; inhibition, % (concentration not given with the values); 37,000 tested, 0.28% active; AID 2240;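 active = most replicates at 85% or more, or half of them and the mean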;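 also: human melanocyte line stably carrying TRPM1 promoter luciferase reporter; 0% = vehicle wells and 100% = a positive control; the first replicate is given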
Numbers without * were called inactive. A portion of the library, so the mix of outcomes need not match the whole.

molecule | MITF inh
Cc1ccc(S(=O)(=O)Nc2cc(Cl)c(O)c(Sc3nc(C)cc(C)n3)c2)cc1 | -13
COc1ccc(Cl)cc1NC(=O)CSc1nc2sccc2c(=O)[nH]1 | 15
Cc1cc(C)c(C#N)c(SCC(=O)c2cc3ccccc3oc2=O)n1 | -47
CCOC(=O)c1c(NC(=O)C(C)Oc2ccccc2C)sc2c1CCCC2 (stereo not drawn) | 8
CC(C)(C#N)NC(=O)C1Cc2ccccc2CN1S(=O)(=O)c1ccc(F)cc1 (stereo not drawn) | -1
O=C(CSc1nnc(-c2ccc(Br)cc2)o1)c1ccc([N+](=O)[O-])cc1 | 6
Cc1cc(C)c(NC(=O)CN(c2cc(C(F)(F)F)ccc2Cl)S(C)(=O)=O)c(C)c1 | -10
O=C(CSc1nnc(-c2ccncc2)o1)Nc1ccc(F)cc1 | -20
COc1ccc(C(=O)CSc2nc(N)nc(SC)c2C#N)cc1 | 14
O=S(=O)(NCc1ccccn1)c1ccc(F)cc1 | -14
Cc1nc(-c2ccccc2)sc1C(=O)C1C(=O)C(=O)N(CCN2CCOCC2)C1c1cccs1 (stereo not drawn) | 4
Cc1ccc(-n2c(SCC(=O)Nc3ccc(F)c(F)c3)nnc2-c2ccccn2)cc1 | -20
Cc1ccc(NC(=O)CCCOc2ccccc2)c([N+](=O)[O-])c1 | -64
Cc1ccnc(SCC(=O)c2cccc([N+](=O)[O-])c2)n1 | -17
O=C(CCSc1nnc(-c2ccccc2)o1)Nc1ccc(F)cc1 | 63
O=C(COc1ccccc1[N+](=O)[O-])Nc1cc2nn(-c3ccccc3)nc2cc1Cl | 4
Cc1ccc(S(=O)(=O)Nc2ccccc2CNc2cnc3ccccc3c2)cc1 | 57
Cn1cnnc1SCC(=O)c1ccc([N+](=O)[O-])cc1 | -12
O=C(CN1C(=O)c2ccccc2C1=O)Nc1ccc(-c2nc3ccccc3o2)cc1 | -12
O=C(CSc1nnc(-c2ccccc2)n1-c1ccccc1)Nc1ccccc1F | 26
CC(=O)c1cccc(NC(=O)Cn2ccc([N+](=O)[O-])n2)c1 | 1
CNS(=O)(=O)c1cc(-c2nnc(Nc3cccc(O)c3)c3ccccc23)ccc1C | -1
O=C(CSC1CC(=O)N(c2ccc(C(=O)O)cc2)C1=O)Nc1ccc2ccccc2c1 (stereo not drawn) | -1
Cc1coc(C)c1C(=O)CC1(O)C(=O)Nc2ccc(Br)cc21 (stereo not drawn) | 29
Cc1ccc(S(=O)(=O)c2nc(-c3ccccc3)oc2NCCN2CCOCC2)cc1 | 1
O=C(CSc1nnc(-c2ccccc2Cl)o1)c1cc2ccccc2oc1=O | -8
O=C(CSc1nnnn1-c1ccccc1)Nc1cccc(Br)c1 | -5
Cc1ccc(NC(=O)C(C)Sc2nnc(-c3ccc([N+](=O)[O-])cc3)n2-c2ccccc2)cc1 (stereo not drawn) | 3
COc1ccccc1NC(=O)Cc1c(OC)ccc2cc(Br)ccc12 | 45
COc1cccc(C(=O)Nc2ccc(NC(=O)C3CC=CCC3C(=O)O)cc2)c1 (stereo not drawn) | 9

Reformatted as labelled records: 4 of the compounds above
O=C(CCSc1nnc(-c2ccccc2)o1)Nc1ccc(F)cc1
  MITF inh = 63

COc1ccc(C(=O)CSc2nc(N)nc(SC)c2C#N)cc1
  MITF inh = 14

Cc1ccc(S(=O)(=O)c2nc(-c3ccccc3)oc2NCCN2CCOCC2)cc1
  MITF inh = 1

Cc1ccc(-n2c(SCC(=O)Nc3ccc(F)c(F)c3)nnc2-c2ccccn2)cc1
  MITF inh = -20

Following part:
molecule | MITF inh
O=[N+]([O-])c1ccccc1S(=O)(=O)Nc1nccs1 | 34
O=C(CSc1nnnn1-c1ccccc1)N1N=CCC1c1ccccc1 (stereo not drawn) | -13
Cc1ccc(N(CC(=O)N2CCOCC2)S(=O)(=O)c2ccccc2)cc1 | -9
CCOC(=O)c1ccccc1NC(=O)C(C)Oc1ccc2c(C)cc(=O)oc2c1 (stereo not drawn) | 15
Cc1cccc(NC(c2ccccc2)c2ccc3ccc(C)nc3c2O)n1 (stereo not drawn) | 39
COc1ccc(C(Nc2cc(C)ccn2)c2ccc3ccc(C)nc3c2O)cc1 (stereo not drawn) | 12
COc1ccccc1CCNC(=O)c1cc(-c2ccncc2)nc2c(C)c(Cl)ccc12 | 13
CN(Cc1nc(-c2cccc([N+](=O)[O-])c2)no1)S(=O)(=O)c1ccc(Br)cc1 | -7
COC(=O)c1ccccc1NC(=O)c1ccc(NC(=O)C(C)Oc2ccc(Cl)cc2C)cc1 (stereo not drawn) | -22
Cc1onc(-c2c(F)cccc2Cl)c1C(=O)NCCc1ccc(S(N)(=O)=O)cc1 | -2
O=C1c2cccc3cccc(c23)C(=O)N1CCCSc1nnnn1-c1ccccc1 | 22
COC(=O)C1=C(C)Nc2nnnn2C1c1ccco1 (stereo not drawn) | -6
COc1ccccc1NC(=O)CNC(=O)c1ccccc1F | -26
CN(CC(=O)Nc1ncn[nH]1)S(=O)(=O)c1cc(Cl)ccc1Cl | -4
COC(=O)c1ccc(NC(=O)CSc2nc(-c3ccccc3)c(-c3ccccc3)[nH]2)cc1 | 19
CCc1nc2sc3c(c2c2nnc(SCC(=O)OC)n12)CCC3 | -7
COc1cc(NC(=O)C(C)Oc2ccccc2)c(Cl)cc1NC(=O)c1ccc(Cl)cc1 (stereo not drawn) | 36
O=C(CSc1nnnn1-c1ccccc1)Nc1nsc(-c2ccccc2)n1 | -51
COc1ccc(NC(=O)CSc2nnc(-c3ccc(Br)cc3)n2C)cc1 | -1
CS(=O)(=O)N(CC(=O)Nc1ccc(F)cc1)c1cccc2ccccc12 | 1
Cc1sc2ncn(CC(=O)Nc3cc(C(F)(F)F)ccc3Cl)c(=O)c2c1-c1ccccc1 | 1
CCOC(=O)c1c(-c2ccccc2)csc1NC(=O)c1cccc(OC(C)=O)c1 | -22
Cc1nn(C)c(C)c1CNC(=O)c1cc(-c2ccccc2Cl)nc2c(C)cccc12 | 3
Cc1ccc(S(=O)(=O)N(CC(=O)O)CC(=O)O)cc1 | 6
CC(=O)c1ccc(NC(=O)CSc2n[nH]c(-c3ccncc3)n2)cc1 | -2
CCn1c(SCC(=O)Nc2cccc(F)c2)nnc1-c1cc2cc(Br)ccc2o1 | 10
Cn1cnnc1SCC(=O)c1ccc2c(c1)OCCO2 | -13
CCC(=O)Nc1cccc(NC(=O)COc2cc(C)cc(C)c2)c1 | -34
COc1ccc(C(=O)NCc2c(C)oc(C)c2C(=O)O)cc1 | -11
Nc1nc(SCC(=O)NC2CCCCC2)n[nH]1 | -4
CCOC(=O)c1c(NC(=O)CN2C(=O)c3ccccc3C2=O)sc(C)c1C | 5
Cn1c(SCCSc2nnc(-c3ccccc3)n2C)nnc1-c1ccccc1 | 16
COc1ccc(Cl)cc1NC(=O)Cn1cnc2c1c(=O)n(C)c(=O)n2C | 8
Cc1ccc(NC(=O)c2cccc(S(=O)(=O)Nc3cccc(C(=O)O)c3)c2)cc1 | 9
Cc1ccc(NC(=O)CSc2nnc(-c3ccc(Cl)c(Cl)c3)n2C)cc1C | -17
Cc1ccc(C)c(NC(=O)c2ccc(OCC(=O)Nc3ccc(Cl)c(Cl)c3)cc2)c1 | 6
Cn1c(SCC(=O)Nc2ccc(Oc3ccccc3)cc2)nnc1-c1ccncc1 | 18
CCOc1ccccc1NC(=O)CSc1c(C)n[nH]c1C | -13
Cc1cc(C)cc(N2C(=O)CC(SCC(=O)Nc3ccc(Cl)cc3)C2=O)c1 (stereo not drawn) | -4
O=S(=O)(NCc1cccnc1)c1ccc(C2CCCCC2)cc1 | 74
Cc1ccc(-c2nc(SCC(=O)Nc3cccc(Br)c3)n[nH]2)cc1 | -6
COc1ccc(NC(=O)CC2NC(=O)NC2=O)cc1 (stereo not drawn) | -1
CCC(=O)c1cn(CC(=O)Nc2cccc(C(F)(F)F)c2)c2ccccc12 | -3
COC(=O)CNC(=O)c1cc(-c2ccccn2)nc2ccc(Cl)cc12 | 17
O=C(CCC1COc2ccccc2O1)Nc1ncc(C(F)(F)F)cc1Cl (stereo not drawn) | -6

Four successive compounds already listed, for reference:
molecule | MITF inh
COc1ccc(NC(=O)CC2NC(=O)NC2=O)cc1 (stereo not drawn) | -1
CCC(=O)c1cn(CC(=O)Nc2cccc(C(F)(F)F)c2)c2ccccc12 | -3
COC(=O)CNC(=O)c1cc(-c2ccccn2)nc2ccc(Cl)cc12 | 17
O=C(CCC1COc2ccccc2O1)Nc1ncc(C(F)(F)F)cc1Cl (stereo not drawn) | -6

The listing continues:
molecule | MITF inh
CCn1c(SCC(=O)Nc2cccc(Cl)c2C)nnc1-c1ccc(Br)cc1 | -8
CCOC(=O)c1c(C)oc2ccc(OCc3cc(C(=O)OC)oc3C)cc12 | -17
Cn1nnnc1SCC(=O)Nc1cccc(Cl)c1Cl | -15
Cc1ccc(NC(=O)CSc2nc(N)cc(=O)[nH]2)cc1Cl | 22
O=C(O)c1cccc(NS(=O)(=O)c2cccc(S(=O)(=O)c3ccc(Cl)c(Cl)c3)c2)c1 | -35
COc1cc([N+](=O)[O-])ccc1NC(=S)NC(=O)COc1ccc(C)cc1 | 4
CC(=O)Nc1ccc(OCC(O)Cn2ccnc2)cc1 (stereo not drawn) | 3
COc1ccc(-n2c(SCC(=O)Nc3cccc(C)c3C)nnc2-c2ccccc2)cc1 | 3
COc1ccc(OC)c(NC(=O)Cn2cnc3sc(C)c(-c4ccc(Cl)cc4)c3c2=O)c1 | 14
O=C(CNC(=O)c1ccco1)Nc1cccc(C(F)(F)F)c1 | -16
CN(Cc1nc(-c2cccc([N+](=O)[O-])c2)no1)S(=O)(=O)c1ccccc1 | -12
COc1ccc(NC(=O)C(C)N(c2ccc(C)cc2)S(C)(=O)=O)cc1 (stereo not drawn) | -14
CCOC(=O)c1c(NC(=O)CSc2ccccn2)sc(C)c1C | -6
O=C(NCCN1CCNCC1)c1ccccn1 | -7
O=C(CSc1nnc(-c2ccco2)o1)c1ccc(Oc2ccccc2)cc1 | -17
CC(C)(C)C(=O)N1CCN(c2ccc([N+](=O)[O-])c(NCc3cccnc3)c2)CC1 | -22
O=C1c2cccc3cccc(c23)C(=O)N1CCCSc1n[nH]c(-c2ccc(F)cc2)n1 | 7
COc1ccccc1-c1cc(-c2ccccc2)nc(SCC(N)=O)c1C#N | 15
Cc1nc(SCC(=O)c2ccccc2)c(C#N)c(-c2cccc(Cl)c2)c1C(=O)Nc1ccccc1 | 9
O=C(CC1Sc2ncnn2C1=O)Nc1ccc(Cl)cc1 (stereo not drawn) | 0
NS(=O)(=O)c1ccc(CCNC(=O)c2cc(-c3ccccn3)nc3ccc(Br)cc23)cc1 | 4
CC(=O)Nc1ccc(NC(=O)CN(C)S(=O)(=O)c2ccccc2)cc1 | 3
N#Cc1c(C(F)(F)F)cc(-c2cccs2)nc1SCC(=O)Nc1ccc2ccccc2c1 | -13
COC(=O)c1c(NC(=O)CN2C(=O)c3ccccc3C2=O)sc(C)c1-c1ccccc1 | -13
O=C(Cn1ccc([N+](=O)[O-])n1)NCc1cccs1 | -26
O=C(COc1ccccc1[N+](=O)[O-])Nc1cccc(-c2nc3cc(Cl)cc(Cl)c3o2)c1 | 6
COc1ccc(CCNS(=O)(=O)c2ccc(OC)c(Cl)c2Cl)cc1OC | -5
COc1ccccc1-c1noc(CCC(=O)Nc2ccccc2Cl)n1 | -2
COc1ccccc1Cn1c(NCC(C)O)nc2c1c(=O)n(C)c(=O)n2C (stereo not drawn) | -3
CNC(=O)CN(C#N)c1nc(N(C)C)nc(N(C)C)n1 | -12
Cc1ccccc1N1C(=O)CC(SCC(=O)Nc2ccccc2)C1=O (stereo not drawn) | -12
O=C(CC1(O)C(=O)Nc2ccc(I)cc21)c1ccccn1 (stereo not drawn) | 16
O=C(CNS(=O)(=O)c1cc(Cl)ccc1Cl)Nc1ccc(Cl)cc1 | -1
COc1ccccc1-n1nnnc1SCC(=O)Nc1cc(OC)c(OC)c(OC)c1 | 29
COc1ccc(OC)c(S(=O)(=O)Nc2ccc(NC(C)=O)cc2)c1 | -27
COc1ccc(NC(=O)C(=O)NCC(=O)Nc2ccc(OC)c(Cl)c2)cc1 | 3
Cc1c(Cl)ccc2c(C(=O)NCCN3CCCCC3)cc(-c3ccccn3)nc12 | -37
O=C(NCCCO)c1nc2ccccc2s1 | -22
CS(=O)(=O)N(CC(=O)Nc1ccc(F)c(F)c1)c1ccccc1F | -3
CC(=O)Nc1ccc(NC(=O)C(C)n2nc(C)c([N+](=O)[O-])c2C)cc1 (stereo not drawn) | -29
O=[N+]([O-])c1ccc(S(=O)(=O)NCc2cccnc2)cc1 | 1
Cc1cc([N+](=O)[O-])ccc1NC(=O)CSc1nccc(=O)[nH]1 | 1
CCN(CC(=O)Nc1ccc(I)cc1)S(=O)(=O)c1ccc(C)cc1 | 12
COC(=O)c1ccc(NC(=O)CN(c2ccc3c(c2)OCCO3)S(C)(=O)=O)cc1 | -60
CCc1c(O)nc(SC(C)C(=O)Nc2cccc(Cl)c2)[nH]c1=O (stereo not drawn) | -13
COC(=O)c1ccc(C(=O)OC)c(NC(=O)COc2ccc3oc4c(c3c2)CCCC4)c1 | -10
Nc1cc(N)nc(SCC(=O)Nc2ccc3ccccc3c2)n1 | -22
COc1ccc(NC(=O)c2cc(-c3ccccn3)nc3c(C)cc(C)cc23)c([N+](=O)[O-])c1 | 87*
Cc1ccc(OCC(=O)Nc2ccc3oc(-c4cccnc4)nc3c2)cc1C | -86
O=C(COc1ccc(Cl)cc1Cl)Nc1ccc(-c2nc3ccccc3s2)c(O)c1 | -64
CCC(=O)Nc1ccc(Cl)c(NC(=O)COc2ccccc2C)c1 | -75
COC(=O)CNc1nc(OC)nc(N(C)C)n1 | -3
COc1ccc(NC(=O)CNC(=O)c2ccco2)cc1Cl | -26
Cc1ccc(NC(=O)c2ccc(NCc3cccnc3)c([N+](=O)[O-])c2)cc1Cl | -8
